# Assay outcomes from PubChem BioAssay.
# LASV entry inh – qHTS for Inhibitors of binding or entry into cells for Lassa Virus; hit rate 1.2% among 300,000; Lassa virus pseudotype entry inhibition, cell reporter; control for the full effect not named in the record; Potency, µM (series often up to 37.9 µM), without a hit: at the top dose activity change, negative = inhibition, most hits filed as inhibitors; AID 540256, 2011; active means well fitted inhibition curve with a large enough effect; inconclusive means small, poorly fitted or top-dose-only effect, or effect the other way; inactive means flat fitted curve, though single readings scatter; tested in HEK293 cells; also: % is scaled to controls: 0 for no effect and ±100 for the full control effect; nearly all actives have a fitted effect of over 50% in size; luciferase read-out
# NS1 inh – qHTS Assay for Inhibitors of Influenza NS1 Protein Function | AID 2326, 2010 | S. cerevisiae slowed by influenza A NS1, growth recovery by OD600 | Potency, µM (top dose mostly 46.1 µM), for the others: at the highest dose activity, positive = more growth | hit rate 0.4% among 270,000; also: actives are rising curves; nearly all actives have a fitted effect of over 50% in size
#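 S. cerevisiae expressing influenza A NS1, grown in glucose, washed, then diluted 1:100 into pH 6.0 -URA galactose medium with 23 nl compound. Growth recovery read as OD600; NS1-free strain serves as control.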
# Marburg entry inh – qHTS for inhibitors of binding or entry into cells for Marburg Virus; Marburg virus pseudotyped entry inhibition, cell reporter; control for the full effect not named in the record; about a third of the inactives were read at about 46 µM; AID 540276, 2011; hit rate 1.8% among 300,000; Potency, µM (highest dose often 37.8 µM), inactives show top-dose activity change, negative = inhibition, hits mostly inhibitors; active = well fitted inhibition curve with a large enough effect; inconclusive = small, poorly fitted or top-dose-only effect, or effect the other way; inactive = flat fitted curve, though single readings scatter; tested in HEK293 cells; about a fifth of its hits are not listed in these tables; also: % is scaled to controls: 0 for no effect and ±100 for the full control effect; luciferase read-out
# SARS PLP yeast – qHTS of Yeast-based Assay for SARS-CoV PLP | AID 485353, 2010 | S. cerevisiae expressing SARS-CoV PLpro, growth rescue; control for the full effect not named in the record | hit rate 0.19% among 330,000 | Potency, µM (series often up to 32.9 µM), for the others: at the highest dose activity, positive = growth rescue; also: 0% is about no effect; nearly all actives have a fitted effect of over 55% in size; growth read by luminescence after 48 h
# Cruzain inh noDet – qHTS Assay for Promiscuous and Specific Inhibitors of Cruzain (without detergent) | hit rate 2.3% among 200,000 | AID 1476, 2009 | Cruzipain (Trypanosoma cruzi), P25779 | Potency, µM, without a hit: max response, negative = inhibition, usual class: inhibitors | purified cruzain, Z-FR-AMC fluorescence, no detergent; active = well fitted curve in the direction sought with a large enough effect; inconclusive = small, poorly fitted or top-dose-only effect, or another doubt; inactive = no such curve, though single readings can be large; an effect the other way counts as inactive or inconclusive;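 also: plate controls were enzyme without inhibitor for no effect and buffer without enzyme for full effect; nearly all actives have a fitted effect of over 40% in size; top concentration of the series not given in the record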
# Target sequence (P25779 123-467 limits assumed): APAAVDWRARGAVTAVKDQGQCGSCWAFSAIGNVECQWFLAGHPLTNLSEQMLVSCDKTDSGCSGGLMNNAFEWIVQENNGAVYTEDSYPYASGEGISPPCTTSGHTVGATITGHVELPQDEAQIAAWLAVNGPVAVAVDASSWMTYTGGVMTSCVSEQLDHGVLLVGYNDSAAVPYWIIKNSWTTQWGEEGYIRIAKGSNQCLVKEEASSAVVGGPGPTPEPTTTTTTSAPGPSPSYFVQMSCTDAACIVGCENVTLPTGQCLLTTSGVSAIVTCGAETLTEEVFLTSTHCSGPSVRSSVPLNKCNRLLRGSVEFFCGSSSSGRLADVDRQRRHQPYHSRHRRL
#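 Detergent-free condition (0.00005% Triton X-100) in acetate buffer pH 5.5 with DTT. 1.5 nM enzyme and compound were pre-mixed 15 min, then 2 uM Z-FR-AMC substrate added; reaction progress from fluorescence change between first and third reads (60 s).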
# StopGo reporter – High Throughput Screening for Foot and Mouth Disease Virus Antivirals | human cells with a luciferase reporter of 2A StopGo recoding; control for the full effect not named in the record | Potency, µM (doses to about 57.9 µM), without a hit: top-dose signal change, negative = less light | hit rate 1.2% among 410,000; active = well fitted falling curve with a large enough effect; inconclusive = small, poorly fitted or top-dose-only effect; inactive = no such curve, though single readings can be large or run the other way; tested in HEK293T cells; also: % is scaled to controls: 0 for no effect and ±100 for the full control effect; nearly all actives have a fitted effect of over 45% in size; luciferase light after 4 h
# Cruzain inh Det – qHTS Assay for Promiscuous and Specific Inhibitors of Cruzain (with detergent); Cruzipain (Trypanosoma cruzi), P25779; hit rate 0.43% among 200,000; Potency, µM, for inactives: max response, negative = inhibition, actives largely listed as inhibitors; purified cruzain, Z-FR-AMC fluorescence, 0.01% Triton; AID 1478, 2009; active = well fitted curve in the direction sought with a large enough effect; inconclusive = small, poorly fitted or top-dose-only effect, or another doubt; inactive = no such curve, though single readings can be large; an effect the other way counts as inactive or inconclusive;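 also: plate controls were neutral wells for no effect and buffer without enzyme for full effect; nearly all actives have a fitted effect of over 40% in size; top concentration of the series not given in the record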
#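 Z-FR-AMC hydrolysis (2 uM substrate) by cruzain (1.5 nM) monitored kinetically at ex 360/em 450 nm after 15 min room-temperature compound exposure; 0.01% Triton X-100, pH 5.5, 5 mM DTT.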
# RE007 growth inh – qHTS Assay for Inhibitors of the HIV-1 protein Vpr. S. pombe RE007 Vpr strain, BacTiter-Glo ATP luminescence, 24 h; control for the full effect not named in the record. Potency, µM (doses to about 92.2 µM), without a hit: top-dose activity change, negative = less growth. hit rate 0.21% among 360,000. AID 651644, 2012; active = well fitted falling curve with a large enough effect; inconclusive = small, poorly fitted or top-dose-only effect; inactive = no such curve, though single readings can be large or run the other way;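 also: % is scaled to controls: 0 for no effect and ±100 for the full control effect; nearly all actives have a fitted effect of over 50% in size; the assay follows cell death caused by Vpr and the record does not say whether a fall means rescue or toxicity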
#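 Fission yeast RE007 carrying one integrated HIV-1 vpr copy, seeded at OD 0.01 in PMG+AL medium with 23 nL pinned compound. Grown 24 h at 30 degrees; viability read by BacTiter-Glo luminescence after 5 min.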
# An asterisk follows results filed as active; ? = inconclusive; . = not tested or not shown; & = joins results of further samples; [ ] = another dose, or the depositor's remark. Unless noted, calls follow the shape of the dose curve; as a rule, active means well fitted rising curve with a large enough effect; inconclusive means small, poorly fitted or top-dose-only effect; inactive means no such curve, though single readings can be large or run the other way. Potency is read from the fitted curve at half-maximal effect.
Compound,Marburg entry inh,SARS PLP yeast,Cruzain inh Det,NS1 inh,RE007 growth inh,StopGo reporter,Cruzain inh noDet,LASV entry inh
Cn1c(O)c(N=NC(=O)CNC(=O)c2ccccc2)c2ccccc21,13%[46.1 µM],18%,.,2%,5%,-9%,.,11%
COc1ccc(S(=O)(=O)N2CCOCC2)cc1NC(=O)CCOc1ccc(C(C)(C)C)cc1,3%,3%,.,.,2%,1%,.,?
COc1ccc(-c2cc(C(=O)N3CCN(Cc4ccc5c(c4)OCO5)CC3)on2)cc1OC,.,?,.,-20%,-1%,-17%,.,.
O=C(c1ccccc1)N1CCC(c2nc3c(nnn3Cc3ccccc3Cl)c(=O)[nH]2)CC1,-15%,14%,1.4%,-12%,-5%,.,?,?
CCOC(=O)c1ccc(NC(=O)C(C)Sc2nc(=O)cc(N)n2CCc2ccccc2)cc1 (stereo unspecified),5µM*,.,-14%,.,.,-12%,17%,-3%[46.1 µM]
O=[N+]([O-])c1ccc(O)c(-c2cc(C(F)(F)F)nc(-c3ccccc3)n2)c1,3%,-5%,.,-3%,-11%,?,.,.
Cc1ccc(CN2CCC(CNC(=O)Nc3c(C)cccc3C)C2)cc1 (stereo unspecified),2%[46.1 µM],.,3.7%,.,.,-17%,-8%,22%[46.1 µM]
Cc1cc2nc(NC(=O)c3ccc(S(=O)(=O)N4CCOCC4)cc3)sc2cc1C,.,.,5.0%,.,.,?,7%,3%[46.1 µM]
CCOC(=O)c1ccc(S(=O)(=O)Nc2cc(C(=O)O)ccc2Cl)cc1,-27%[14.2 µM],4%,.,.,?,29%,.,11%
S=C(c1cn(CCOc2cccc3ccccc23)c2ccccc12)N1CCCC1,-21%,18%,-1.7%,18%,4%,?,?,-17%
C[C@@H](C(=O)Nc1ccc2ccccc2c1)[C@@H]1C[C@@]1(C)[C@@H](NC(=O)c1ccccc1)c1ccccc1,-29%,-9%,-1.6%&0.8%,13µM*,6%,1%,?,1%
COc1ccccc1-n1c(CNC(=O)c2ccco2)nnc1SCC(=O)Nc1cc(C)ccc1C,12%,5%,-1.1%,-8%,-8%,21%,-10%,12%
N#C/C(=C/c1cn[nH]c1-c1ccc(Br)cc1)C(=O)O,9%[46.1 µM],9%,.,.,19%,-5%,.,?
O=[N+]([O-])c1ccc2nc(-c3ccccc3)[nH]c2c1,?,-65%,-5.4%,-21%,?,-15%,-5%,-11%
COc1ccccc1CC(=O)Nc1ccc(NC(=O)c2cccs2)cc1,?,-4%,.,8%,5%,-18%,.,-23%
CCc1ccc(CN2CCN(C(=O)Cc3ccccc3)CC2)cc1,11%[46.1 µM],0%,.,0%,0%,-25%,.,-14%[46.1 µM]
CCN(CC)CCCNCC(=O)Nc1cc(C)on1,.,-1%,.,-4%,-5%,0%,.,.
CNC(=O)c1ccc(Nc2nnc(-c3ccc(C)c(S(=O)(=O)N4CCOCC4)c3)c3ccccc23)cc1,.,.,-15%,.,.,-30%,?,?
O=C(CCCn1c(=O)c2cccn2c2ccccc21)Nc1cccc(Cl)c1,.,.,-8.5%,.,.,-17%,7%,?
Cc1ccc(/C=C2\SC(=S)N(CC(=O)Nc3cccnc3)C2=O)cc1,28%[46.1 µM],-1%,.,.,1%,21%,.,-12%
O=C1c2ccccc2C(=O)N1CCCP(=O)(O)CCc1ccccc1,-7%,5%,3.8%,2%,17%,-9%,-17%,3%
COC(CNC(=O)C1CCN(S(=O)(=O)c2cccc3nsnc23)CC1)OC,.,1%,.,6%,16%,?,.,.
O=C(CCc1ccccc1)NCc1ccccn1,10%,4%,2.8%,3%,9%,15%,-2%,1%
CS/C(N)=N/C(=S)Nc1cccc(Cl)c1,-13%[46.1 µM],-2%,.,-31%,-12%,9%,.,?
COC(=O)c1c(NC(=O)c2ccc([N+](=O)[O-])o2)sc2c1CCN(C(C)C)C2,?,-12%,.,-107%,-21%,?,.,?
COC(=O)CSc1nc2cc(OC)ccc2n1C,.,0%,.,0%,0%,52%[activator],.,.
CCOC(=O)C1C(=O)OC(C)(C)C1C(CC)C(=O)c1c(C)cc(C)cc1C (stereo unspecified),.,-1%,.,1%,-6%,-27%,.,.
CCOc1ccc(NC(=O)c2c(NCc3cccnc3)sc3c2CCCC3)cc1,.,.,-5.3%,.,.,51%[activator],6%,-2%[46.1 µM]
COc1ccc(OCCNC(=O)c2cccc(Oc3ccc(C(F)(F)F)cc3[N+](=O)[O-])c2)cc1,?,1%,-7.8%,?,.,?,19%,-30%
O=C(NCCSc1ccc(Cl)cc1)c1ccc(CN2CCOCC2)cc1,?,0%,.,-1%,4%,?,.,-4%
Cc1ccc(-n2nc(C)c3c2OC(N)=C(C#N)C3c2ccccc2F)cc1 (stereo unspecified),4%,-1%,-9.6%,2%,-24%,-21%,-11%,?
Nc1c(N(C(=O)Nc2ccc(Cl)c(Cl)c2)C2CCCC2)c(=O)[nH]c(=O)n1Cc1ccccc1,7%,3%,4.3%,8%,4%,?,25%,?
CCOC(=O)c1oc2ccc(S(=O)(=O)Nc3ccc4c(c3)n(C)c(=O)n4C)cc2c1C,?,-3%,-7.9%,-70%,-2%,.,?,-27%
CC(C)CCC(CCN1CCCC1)c1ccc2c(c1)OCO2 (stereo unspecified),?,-1%,.,3%,2%,-16%,.,-10%
CC12C=CC(=O)C=C1CC(O)C1C2CCC2(C)C1CCC2(C)O (stereo unspecified),-2%[46.1 µM],.,.,.,-13%,2%,.,9%[46.1 µM]
COc1ccc(S(N)(=O)=O)cc1C(=O)OCC(=O)Nc1sccc1C#N,2%[46.1 µM],1%,.,.,11%,-1%,.,-2%[46.1 µM]
COC(=O)C1=C(O)/C(=C\c2cc(C)n(-c3ccccc3F)c2C)N=C1C,3%[46.1 µM],2%,.,.,0%,17%,.,3%[46.1 µM]
CCCCOc1ccc(C2CCC(C(C)=O)C(C)C2)cc1 (stereo unspecified),3%[46.1 µM],-5%,.,-9%,8%,-3%,.,0%
CCN(CC)S(=O)(=O)c1ccc(C)c(NC(=O)CN(C)C)c1,-17%[46.1 µM],-1%,-1.6%,-5%,-5%,-1%,-3%,10%
COc1ccc(OC)c(NC(=O)CSc2nc(=O)n(CCN3CCOCC3)c3c2CCC3)c1,27%,.,.,.,1%,9%,.,11%
CSCCC1NC(=O)N(C(C)C(=O)Nc2cc(Cl)cc(Cl)c2)C1=O (stereo unspecified),-19%[46.1 µM],1%,.,-2%,-7%,-19%,.,-8%
Cc1cc(C)n2nc(CNC(=O)c3cccc(N(C)C)c3)nc2n1,18%[46.1 µM],.,-0.9%,.,.,51%[activator],-7%,8%[46.1 µM]
CCCc1cc(=O)oc2c(C)c(O[C@@H]3O[C@H](CO)[C@@H](O)[C@H](O)[C@H]3O)ccc12,-22%,1%,.,0%,-16%,-12%,.,-19%
CCOc1ccc(S(=O)(=O)N2CCc3ccccc3C2)cc1,-5%,?,-0.1%,10%,-11%,-3%,-15%,-1%
COC(=O)C1=CNC=C(C(=O)OC)C1c1cccc(OC)c1,-1%,3%,-24%,9%,1%,-8%,-21%,1%
CCc1cccc(C)c1NC(=S)NCCc1c(C)[nH]c2ccc(C)cc12,?,28%,-3.0%,28%,6%,18%,-2%,?
CCn1c2ccccc2c2nnc(N3CCN(c4cc(C)ccc4C)CC3)nc21,.,.,-6.5%,.,.,-5%,10%,?
CC(=O)Nc1ccc(S(=O)(=O)NCCNC(=O)c2ccccc2F)cc1,1%,-2%,3.3%,-5%,2%,-3%,-9%,7%
CCCn1c(CC)nc([N+](=O)[O-])c1S(=O)(=O)c1ccccc1,?,-12%,1.2%,-37%,3%,13µM*,2%,?
CCN(C(=O)c1cnc2scc(C)n2c1=O)c1ccccc1C,.,3%,5.0%,-15%,1%,-12%,-3%,.
Cc1ccc(Cl)cc1N1CCN(S(=O)(=O)c2cnc[nH]2)CC1,.,-6%,0.4%,3%,0%,?,-8%,.
N#CCCCn1c(-c2ccccc2)noc1=O,4%,-1%,6.3%,0%,-9%,-8%,-6%,4%
CCOc1ccc(S(=O)(=O)Nc2c(C)n(C)n(-c3ccccc3)c2=O)cc1,-27%[46.1 µM],-5%,.,4%,-7%,3%,.,3%[46.1 µM]
CC1CCN(C(c2cccs2)c2nnnn2Cc2ccccc2)CC1 (stereo unspecified),-3%,-29%,-1.9%,-49%,7%,-13%,-13%,2%
CC(=O)Nc1ccc2nc3ccccc3nc2c1,.,-4%,.,-58%,-14%,61%[activator],.,.
CCOC(=O)c1[nH]c2ccc(F)cc2c1NC(=O)CN1CCN(C/C=C/c2ccccc2)CC1,?,3%,-2.9%,-7%,23%,32µM*,-10%,?

# Further entries.
Compound,Marburg entry inh,SARS PLP yeast,Cruzain inh Det,NS1 inh,RE007 growth inh,StopGo reporter,Cruzain inh noDet,LASV entry inh
Cc1ccc(C(=O)NCCNC(=O)Cc2ccccc2)cn1,-1%[46.1 µM],1%,.,8%,-13%,-25%,.,13%
CCOC(=O)C1CCCN(c2c(NCCc3ccc(Cl)cc3)c(=O)c2=O)C1 (stereo unspecified),.,-1%,.,-1%,11%,-21%,.,.
COc1ccccc1NC(=S)NCCC(c1ccccc1)c1ccccc1,-27%,3%,-6.5%,-13%,-15%,18%,7%,-1%
Oc1ccc(Br)cc1C=Nc1ccc(Cl)cc1,3%,-1%,.,.,-3%,-15%,.,5%
COc1ccccc1-c1ccc(NC2CCCCC2)nn1,?,-21%,-0.4%,-42%,-7%,47%[activator],0%,25%
